# D2 PAM = Beta-Arrestin HTS for Positive Allosteric Modulators of the Human D2 Dopamine Receptor: Potentiators; D(2) dopamine receptor (Homo sapiens), P14416; potentiation, % (concentration not given with the values); DiscoveRx D2 beta-arrestin cells, luminescence, 90 min; 100% = 57 uM dopamine signal; actives 0.23% (n = 360,000); AID 624464, 2012; active = potentiation of 50% or more; inconclusive = 30% to 50%; inactive = 30% or less;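 further: compound concentration not given in the record; tested on top of an EC20 dose of dopamine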
# Target sequence (P14416 whole entry, looked up): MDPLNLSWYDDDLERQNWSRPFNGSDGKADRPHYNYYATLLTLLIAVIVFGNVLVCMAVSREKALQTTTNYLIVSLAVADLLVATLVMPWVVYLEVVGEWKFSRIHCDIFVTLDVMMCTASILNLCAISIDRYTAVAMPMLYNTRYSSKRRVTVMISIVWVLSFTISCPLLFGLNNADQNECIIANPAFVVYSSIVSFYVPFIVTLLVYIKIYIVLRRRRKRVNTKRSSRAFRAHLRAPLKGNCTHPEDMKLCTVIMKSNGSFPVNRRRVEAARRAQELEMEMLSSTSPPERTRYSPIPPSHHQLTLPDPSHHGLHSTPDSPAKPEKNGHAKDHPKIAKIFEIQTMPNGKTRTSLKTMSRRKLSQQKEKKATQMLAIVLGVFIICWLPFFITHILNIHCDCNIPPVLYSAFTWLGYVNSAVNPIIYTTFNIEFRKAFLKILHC
#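 PathHunter beta-arrestin assay in DiscoveRx D2 cells. Compounds were added with an EC20 of dopamine (50 nM final) for 90 min at 37 deg C. Luminescence was read 1 h after detection reagent, with 57 uM dopamine as the EC100 control.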
# D2 ag = Beta-Arrestin HTS for Positive Allosteric Modulators of the Human D2 Dopamine Receptor: Agonists. DiscoveRx PathHunter D2 beta-arrestin, luminescence, 90 min; 100% = 57 uM dopamine signal. D(2) dopamine receptor (Homo sapiens), P14416. actives 0.084% (n = 360,000). activation, % (no concentration beside the values); in the data active = activation above about 40%; inconclusive = about 15% to 40%; inactive = below about 15%; further: compound concentration not given in the record; the text of the record calls up to 30% inactive
#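 Agonist mode: compounds alone added to overnight-plated D2 PathHunter cells for 90 min at 37 C, with 57 uM final dopamine (EC100) defining full response. Beta-arrestin recruitment detected by chemiluminescent reagent, read after 1 h at ambient temperature.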
# Six1-Eya2 inh = qHTS Assay for Inhibitors of the Six1/Eya2 Interaction; Homeobox protein SIX1 (Homo sapiens) + Protein phosphatase EYA2 (Homo sapiens), …; AlphaScreen GST-Six1/His-Eya2 binding, biochemical; hits give low values; control for the full effect not named in the record; activity change, % (test concentration not listed); actives 0.56% (n = 360,000); AID 651725, 2012; in the data active = activity change below about -65%; inconclusive = about -30% to -65%; inactive = above about -30%; further: on the % scale 0 is the no-effect control and ±100 the full control effect; compound concentration not given in the record
#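 AlphaScreen with GST-Six1 and His-Eya2 (5X mix: 250 nM and 500 nM), glutathione donor and nickel acceptor beads; buffer 50 mM Tris pH 8.0, 300 mM NaCl, 1 mM TCEP; 1 h at 37 C in the dark.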
# TRPML1 agonist = qHTS for Agonists of the Human Mucolipin Transient Receptor Potential 1 (TRPML1); Mucolipin-1 (Homo sapiens), Q9GZU1; TRPML1-expressing cells, Ca2+ dye fluorescence, FDSS; host cell line not named in the record; reference of the full effect not given here; activation, % (test concentration not listed); actives 0.12% (n = 410,000); AID 624414, 2012; in the data active = activation above about 50%; inconclusive = about 30% to 50%; inactive = below about 30%; further: 0% is about no effect; the text of the record puts the active cut at 80%
# Target sequence (Q9GZU1 whole entry, looked up): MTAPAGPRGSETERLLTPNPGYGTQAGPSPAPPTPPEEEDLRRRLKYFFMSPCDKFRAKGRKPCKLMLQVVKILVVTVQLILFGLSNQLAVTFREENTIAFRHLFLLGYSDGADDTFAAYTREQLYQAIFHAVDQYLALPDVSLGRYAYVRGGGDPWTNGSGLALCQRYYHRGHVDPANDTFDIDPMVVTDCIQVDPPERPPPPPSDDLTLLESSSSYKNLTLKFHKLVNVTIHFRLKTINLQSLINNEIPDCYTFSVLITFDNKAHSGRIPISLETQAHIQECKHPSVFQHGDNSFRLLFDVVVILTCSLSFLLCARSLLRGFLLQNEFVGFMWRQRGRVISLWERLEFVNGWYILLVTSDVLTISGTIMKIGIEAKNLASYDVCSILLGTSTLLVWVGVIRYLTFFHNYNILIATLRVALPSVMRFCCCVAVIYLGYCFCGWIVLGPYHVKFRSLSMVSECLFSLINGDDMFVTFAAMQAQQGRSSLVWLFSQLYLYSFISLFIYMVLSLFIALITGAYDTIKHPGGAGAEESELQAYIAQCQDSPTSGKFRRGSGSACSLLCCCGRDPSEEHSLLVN
#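 Kinetic FDSS Ca2+ read in Tet-induced TRPML1-DL cells (ABD Ca8 dye plus quencher, 45-90 min RT loading): baseline, then compound, then 110 s agonist window; EC80 agonist 54-4 at 4uM final added afterwards for a 110 s antagonist window.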
# TRPML1 inh = qHTS for Inhibitors of the Human Mucolipin Transient Receptor Potential 1 (TRPML1); Mucolipin-1 (Homo sapiens), Q9GZU1; TRPML1-inducible cells, Ca2+ dye fluorescence, FDSS; hits give low values; inhibition of EC80 agonist-evoked calcium signal; activity change, negative = inhibition, % (test concentration not listed); actives 0.02% (n = 390,000); AID 624415, 2012; in the data active means activity change below about -50%; inconclusive means about -30% to -50%; inactive means above about -30%;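 further: stimulus is agonist 54-4 at its EC80 concentration; on the % scale 0 is the no-effect control and ±100 the full control effect; compound concentration not given in the record; the text of the record puts the active cut at -80%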
#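 Calcium fluorescence in TRPML1-DL cells induced overnight with Tet: a 110 s read after compound pin addition, then a 110 s antagonist read after challenge with 54-4 at 4 uM final (EC80).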
# PINK1 expr mod = A Quantitative High throughput Screen to Identify Chemical Modulators of PINK1 Expression; PINK1 immunofluorescence, high-content cytometry, 24 h; Potency, µM (top dose mostly 76.6 µM), for inactives: top-dose activation (PINK1 increase), hits mostly activators; actives 0.2% (n = 410,000); AID 624263, 2012; active = well fitted activation curve with a large enough effect; inconclusive = small, poorly fitted or top-dose-only effect; inactive = flat fitted curve, though single readings scatter; cell line not stated here;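 further: potency means the concentration at half of the fitted maximal effect; % of control where 0% means no effect; nearly all actives have a fitted effect of over 65% in size; a mitochondrial uncoupler was the plate control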
#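 PINK1 protein, normally rapidly degraded, was detected by immunofluorescence after 24 hour compound treatment of a stable cell line. Titration data (5 concentrations) came from laser-scanning cytometry, with CCCP-treated wells as controls.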
# * marks the source's active call; other numbers are inactive results; ? = inconclusive; . = not tested or not shown; [ ] = dose if it differs, or a comment.
SMILES,D2 PAM,D2 ag,Six1-Eya2 inh,TRPML1 agonist,TRPML1 inh,PINK1 expr mod
CSc1nc2ccc(NS(=O)(=O)c3ccccc3F)cc2s1,-5,-4.0,2,0.4,-14,0.1%
CCN1CCN(C(=O)/C=C/c2c(F)cccc2Cl)CC1,-37,-0.9,8,0.0,8,-2.2%
N=C1S/C(=C\c2ccc(-c3ccccc3C(=O)O)o2)C(=O)N1c1ccc2c(c1)OCO2,-26,-9.2,-29,-0.4,-7,2.2%
COc1c2c(nc3occc13)C(CCC(C)(C)O)(OC)C(O)CC2 (configuration not stated),4,-1.4,2,-0.5,-16,-2.3%
C=C1C(=O)c2sccc2C(c2ccc(OC)c(OC)c2)C1COC(C)=O (configuration not stated),-39,-10,-17,7.6,-6,-6.2%
COC(=O)[C@@H]1CC(O)CN1C(=O)C12CC3CC(CC(C3)C1)C2 (some centres not stated),2,-0.4,0,0.1,26,1.6%
COC(=O)c1ccc(NC(=O)Nc2ccccc2F)cc1,-7,2.0,2,-0.4,-6,-0.7%
CCc1cccc(C)c1Nc1c(-c2cccc(O)c2)nc2cnccn12,.,.,.,-0.8,13,1.7%
COc1ccc(NC(=O)c2c(NCc3sccc3C)sc3c2CCCCC3)c(OC)c1,.,.,.,-0.2,-19,1.9%
Cc1ccc(NC(=O)c2cncc(Br)c2)cc1S(=O)(=O)N(C)C,-5,-1.3,-9,0.9,2,0.5%
CC(=O)N1CCc2c(sc(NC(=O)C3COc4ccccc4O3)c2C(N)=O)C1 (configuration not stated),2,-1.1,-3,1.6,2,2.3%
O=C1OCCC1Sc1nnc(-c2ccccc2)o1 (configuration not stated),-5,-2.1,5,-0.2,32,-0.4%
OC(CN1CCCCC1)Cn1c2ccccc2c2ccccc21 (configuration not stated),-13,-1.2,-4,1.0,-2,-0.2%
O=C(C1CCN(Cc2ccc(F)cc2)CC1)N(CCO)Cc1ccccc1,-15,-0.6,4,0.4,-18,-2.1%
Cc1cc(C(=O)N2CCN(C/C=C/c3ccccc3)CC2)no1,-9,0.3,0,2.7,10,0.0%[38.3 µM]
CN(C)c1ccc(-c2noc(C3CCN(S(=O)(=O)c4cccc(C(=O)O)c4)CC3)n2)cc1,11,2.2,-2,-0.7,-3,-1.4%[38.3 µM]
O=C(COC(=O)c1ccc([N+](=O)[O-])s1)NCCc1ccccc1,-9,2.2,-2,1.6,5,1.9%
Cc1c(Br)c(=O)oc2c(C)c(O)ccc12,-10,-0.4,?,0.6,12,-0.8%
CN(CC(=O)Nc1c(Cl)cccc1Cl)C(=O)c1ccc(NS(=O)(=O)c2ccc3[nH]c(=O)[nH]c3c2)cc1,1,0.0,-3,1.2,9,0.2%
CCCCCCNS(=O)(=O)c1ccc(Cl)s1,7,4.3,21,-1.0,-4,7.0%
Cc1cc(C)n(CC(O)Cn2c3ccc(Cl)cc3c3cc(Cl)ccc32)c(=O)n1 (configuration not stated),-8,2.2,-2,-0.8,8,2.2%[38.3 µM]
CC(Oc1ccc(/C=N/NC(=O)Cc2cccc3ccccc23)cc1)C(=O)O (configuration not stated),-5,-2.8,-2,-0.6,-3,0.4%
CCOP(=O)(OCC)C(Cc1ccccc1)N=C(c1ccccc1)c1ccccc1 (configuration not stated),-2,3.5,-5,-0.4,.,24%
CC1(C)Cc2cccc(OCC(=O)N3CCN(c4ccccc4F)CC3)c2O1,-14,2.6,-6,2.2,-27,0.7%
O=C(NCCc1ccc(Cl)cc1)c1ccc2nc(Cc3ccccc3)oc2c1,.,.,.,3.5,12,4.8%

# Next section
SMILES,D2 PAM,D2 ag,Six1-Eya2 inh,TRPML1 agonist,TRPML1 inh,PINK1 expr mod
O=C(NCc1cc([N+](=O)[O-])ccc1O)c1cccnc1Sc1ccccc1Cl,-32,-3.4,?,1.3,10,-1.0%
Cc1cccc(-c2noc(-c3ccoc3C)n2)c1,-6,-2.5,-1,0.2,-14,9.8%
COc1ccc(Cc2nnc(-c3ccccc3)o2)cc1,-2,-2.5,12,-0.4,22,0.6%
CCN(C(=O)CSc1nc2ccccc2o1)c1c(N)n(Cc2ccccc2)c(=O)[nH]c1=O,0,-0.8,-1,0.2,7,-1.3%
CCCCCCCc1c(C)nc(N2CCOCC2)[nH]c1=O,-2,-1.6,7,0.4,-2,-1.2%[38.3 µM]
c1ccc(Cc2cc[n+](Cc3ccccc3)cc2)cc1,-2,-2.3,8,-0.7,-15,0.4%
CCc1nc2c(OCc3ccc(Cl)cc3Cl)cccn2c1N(C)C(=O)c1ccccc1F,-5,-2.2,-18,2.6,.,15%
COc1ccc(Cl)cc1NC(=O)CSC1=Nc2ccccc2C2=NC(CC(=O)NCc3ccc4c(c3)OCO4)C(=O)N12 (configuration not stated),.,.,.,1.3,-10,0.0%
CC(C)Cn1c(N2CCN(CC(=O)Nc3ccc(Cl)cc3)CC2)nc2ccccc21,-6,1.8,-2,3.1,25,1.0%
Cc1oc(C)c2c(=O)cc(-c3ccc4c(c3)OCO4)cc(OC(=O)c3cccc(Br)c3)c12,.,.,.,-0.3,-8,-0.7%
CN(CCc1ccccn1)C(=O)Nc1ccc(F)cc1,-3,-5.0,3,-0.9,67,-1.1%
Fc1ccc2c(c1)-c1c(cnc3cc(-c4ccc(Cl)cc4)nn13)CO2,.,.,.,-0.3,-19,0.6%
O=C(Cn1cnc2ccc(Br)cc2c1=O)c1cccs1,-28,-2.5,-1,-0.9,9,4.5%
CCc1nc2ccc(C(=O)Nc3cccc(OC)c3)cn2c1N(CC)CCOC,7,12,2,-1.3,.,2.5%
Cc1cc(C)c(S(=O)(=O)Cc2ccccc2)c(=O)[nH]1,-4,9.5,4,0.6,19,-1.9%
O=C(Nc1cccnc1)C1=NN(C2CCS(=O)(=O)C2)C(=O)CC1 (configuration not stated),0,-4.3,-8,1.0,8,0.6%
COC(=O)c1cc(-c2ccc(OC)c(OC)c2)n[nH]1,-1,2.5,-26,0.0,4,0.1%
CC(=O)c1ccc(-n2c(SCC(=O)c3c[nH]c4ccccc34)nc3ccccc3c2=O)cc1,-1,-4.1,1,0.6,15,1.7%
CCOC(=O)C1CCN(C(=O)c2ccccc2N(C)S(C)(=O)=O)CC1,1,-2.7,4,0.4,-10,-1.2%[38.3 µM]
COc1ccc(CNC(=O)c2ccc(-c3nc(CSc4ccccc4)c(C)o3)cc2)cc1OC,.,.,.,0.1,-1,6.2%
O=C(CCS(=O)(=O)c1cccs1)N1CCN(c2ccc(F)cc2)CC1,-6,-4.4,-1,-1.0,10,-2.5%
O=C(NCC(F)(F)F)c1ccc(S(=O)(=O)NCCc2ccc3c(c2)OCCO3)cc1,-7,-1.2,-2,-0.7,-2,1.8%
COc1ccc(C)cc1NC(=O)C(c1ccccc1)N1CCN(CC(=O)N2CCOCC2)CC1 (configuration not stated),-29,-7.1,-4,-0.8,-1,2.0%
COc1ccccc1NC1=NCC(=O)N1Cc1ccccc1,3,0.5,6,0.6,23,1.4%
Cc1cc(O)c(C(c2ccccc2)N2CCN(c3ccccc3)CC2)c(=O)n1Cc1ccco1 (configuration not stated),.,.,.,2.0,-29,0.7%

# Exported bar-delimited: entries from further up.
mol | D2 PAM | D2 ag | Six1-Eya2 inh | TRPML1 agonist | TRPML1 inh | PINK1 expr mod
CCOC(=O)C1CCN(C(=O)c2ccccc2N(C)S(C)(=O)=O)CC1 | 1 | -2.7 | 4 | 0.4 | -10 | -1.2%[38.3 µM]
COc1ccc(CNC(=O)c2ccc(-c3nc(CSc4ccccc4)c(C)o3)cc2)cc1OC | . | . | . | 0.1 | -1 | 6.2%
O=C(CCS(=O)(=O)c1cccs1)N1CCN(c2ccc(F)cc2)CC1 | -6 | -4.4 | -1 | -1.0 | 10 | -2.5%
O=C(NCC(F)(F)F)c1ccc(S(=O)(=O)NCCc2ccc3c(c2)OCCO3)cc1 | -7 | -1.2 | -2 | -0.7 | -2 | 1.8%

# Next compounds follow.
SMILES,D2 PAM,D2 ag,Six1-Eya2 inh,TRPML1 agonist,TRPML1 inh,PINK1 expr mod
C=CCn1c(SCc2ccc(Br)cc2F)nc2cc(C(=O)O)ccc2c1=O,-1,2.7,3,0.0,31,2.4%
CN(C)CCNC(=O)C1CCCNC1=O (configuration not stated),2,-2.7,0,-1.0,-10,-3.7%
Cc1ccc(CCNC(=O)c2cc3cc4cc(C)ccc4nc3s2)cc1,.,.,.,0.3,4,0.9%
CCN(c1ccccc1C(=O)O)S(=O)(=O)c1ccc2[nH]c(=O)[nH]c2c1,1,-1.5,-1,-0.3,12,2.3%
COc1ccc(C(=O)C[n+]2ccc(-c3nnc4n3CCCCC4)cc2)cc1,-7,-4.2,-3,1.0,15,1.8%
OC1(c2ccc(F)cc2)CCN(Cc2cccnc2)CC1,-15,-6.4,1,-0.5,-5,1.4%
COc1cccc(-c2cnc3c(NC=O)cc(-c4ccc(OC)cc4OC)cn23)c1,-15,-3.1,-11,-0.6,.,4.7%
CCOc1ccc(Sc2cc(C(=O)NCCCOC)c3ccccc3n2)cc1,.,.,.,1.8,13,-0.6%
O=C(NC1CC1)C1=C[C@@H](C2CCCCC2)C[C@@H](OCc2ccc(CO)cc2)O1,-7,-1.9,-2,-0.3,1,0.9%
Cc1ccc(Nc2nc(N3CCOCC3)nc(N3CCOCC3)n2)cc1C,-9,0.5,7,0.7,-8,-0.6%
CCN(CC(=O)NCc1ccc(F)cc1)C(=O)/C=C/c1ccco1,1,-1.3,-8,0.6,-7,-1.6%
COc1ccc(CC(=O)N/N=C/c2cc(Br)cs2)cc1OC,-9,-0.7,-2,-0.3,19,-1.4%
O=C(CC1OC(=O)c2ccccc21)Nc1ccc(Cl)c(S(=O)(=O)N2CCCCC2)c1 (configuration not stated),-23,-1.7,-10,0.4,-14,11%
CCOC(=O)c1nc(Nc2cc(Cl)ccc2OC)c2ccccc2n1,-2,4.7,1,0.8,-17,0.8%
CCC(C)c1ccccc1NC(=O)COC(=O)c1ccc2[nH]c3c(c2c1)CCCC3 (configuration not stated),14,5.0,-21,3.2,-7,?
COc1ccc(CN2C(=O)C(CC(=O)NCC3CCCCC3)CC(C(=O)N(C)C)=C2C)cc1 (configuration not stated),.,0.4,1,.,.,-0.3%
CCCN1CCN(S(=O)(=O)c2ccc(-c3cc(C)no3)s2)CC1,-5,-0.6,-9,1.7,18,1.4%
COc1ccc(CCN=C2SCC(=O)N2C)cc1OC,-12,0.1,6,-0.8,-1,-2.6%[38.3 µM]
COc1ccccc1CNC(=O)[C@H](C)NC(=O)C1CCN(C(=O)[C@H](CCSC)NC(=O)OC(C)(C)C)CC1,-16,-6.7,7,.,.,0.3%
CC(C)C1=NOC(C(=O)N2CCC(N3CCC(C(=O)N4CCOCC4)CC3)CC2)C1 (configuration not stated),8,6.5,3,-0.2,-12,0.2%

# Rows are unselected (roughly 1% active in at least one column).
